Bioassay records: PubChem BioAssay, several laboratories
AF4-AF9 inh: blocks AF4 peptide binding to human AF9. AlphaScreen, biotin-AF4 peptide binding to FLAG-AF9. P42568. inhibition, % at 10 µM. 0.47% of 350,000 active;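 active means every replicate reaching a set inhibition limit, whatever the replicate mean, cut at about 25% in these data; inconclusive means mean inhibition reaches that limit but some replicates miss it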;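 further: 0% = plate neutral control median and 100% = total signal loss; the record names both 10 and 1 µM as test concentration; the first replicate is given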
Target sequence (P42568 whole entry, looked up): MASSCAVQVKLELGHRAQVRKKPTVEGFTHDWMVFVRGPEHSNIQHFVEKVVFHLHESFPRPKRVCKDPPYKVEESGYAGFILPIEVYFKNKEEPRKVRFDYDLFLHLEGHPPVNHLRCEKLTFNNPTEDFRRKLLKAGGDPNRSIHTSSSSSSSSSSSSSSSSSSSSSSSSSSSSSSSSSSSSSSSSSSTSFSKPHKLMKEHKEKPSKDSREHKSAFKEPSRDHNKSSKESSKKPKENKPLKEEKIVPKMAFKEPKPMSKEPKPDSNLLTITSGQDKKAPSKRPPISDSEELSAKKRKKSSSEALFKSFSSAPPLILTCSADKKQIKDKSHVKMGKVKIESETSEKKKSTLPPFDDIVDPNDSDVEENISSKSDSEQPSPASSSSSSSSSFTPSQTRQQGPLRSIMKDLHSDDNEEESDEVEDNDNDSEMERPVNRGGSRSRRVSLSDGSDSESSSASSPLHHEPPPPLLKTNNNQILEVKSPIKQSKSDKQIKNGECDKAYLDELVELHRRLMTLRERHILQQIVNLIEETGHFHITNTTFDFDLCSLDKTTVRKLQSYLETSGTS
ALR inh: blocks human ALR sulfhydryl oxidase activity | 3.8% of 290,000 active | AID 485317 | inhibition, % (no concentration beside the values) | P55789 | purified ALR, DTT oxidation, H2O2 HRP-luminol luminescence;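 active means mean and each replicate at 75% or more; inconclusive means only one of the two met; inactive means neither met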;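 further: stock transfer was 7.5 nL into about 7.5 µL; 0% = neutral wells and 100% = wells with inactivated enzyme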
Target sequence (P55789 whole entry, looked up): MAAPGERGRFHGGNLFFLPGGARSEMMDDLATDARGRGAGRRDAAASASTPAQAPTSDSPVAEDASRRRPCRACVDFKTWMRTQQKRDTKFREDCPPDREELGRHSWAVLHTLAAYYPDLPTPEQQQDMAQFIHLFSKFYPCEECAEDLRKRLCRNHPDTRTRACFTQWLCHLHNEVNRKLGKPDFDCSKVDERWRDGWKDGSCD
HNF4A DNA FP: change in binding of human HNF4 alpha to DNA; activity change, % at 10 µM; AID 1224865; 0.3% of 360,000 active; HNF4a-FITC DNA binding, fluorescence polarization, 1 h; P41235; in the data active means activity change above about 30%, passing the limit was not always enough;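 further: controls were the assay level and a saturating level of protein; the project sought stronger binding though the title names inhibitors; some compounds called inactive have numbers as strong as hits; positive values seem to mean higher polarization but the record does not say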
Vif TR-FRET: HIV-1 Vif–A3G interaction blockers – biochemical, TR-FRET, GST-Vif 1-94, biotin-A3G peptide, dose response retest, primary screen (AID 1117319); inhibition, %, or IC50 in µM where a hit was titrated; 0.57% of 260,000 active; TR-FRET GST-Vif / biotin-A3G peptide binding; higher % means a stronger effect; test concentration not given here; strong numbers were not always called active;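 active means above the screen mean plus three standard deviations and confirmed in dose response; inconclusive means results disagree or hit not tested in dose response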;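 further: Vif residues 1-94 fused to GST binding biotinylated APOBEC3G peptide 110-148; 0% = full assay without inhibitor and 100% = GST in place of GST-Vif; retest series ran down from 100 µM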
E coli growth: inhibitors of Escherichia coli growth; OD600 absorbance (no concentration beside the values); 0.21% of 330,000 active; AID 1053175; OD600, 23 h; active compounds read low;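 active means OD600 absorbance below the run mean of sample wells minus 3.6 SD, in any replicate, cut at about 0.56 in these data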;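 further: stock transfer was 300 nL into about 60 µL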
rRNA inh HTS: inhibitors of bacterial rRNA selective over humanized ribosomes. GFP signal change (wild-type ribosome), % (test concentration not listed). 1.6% of 350,000 active. E. coli WT GFP vs humanized-ribosome RFP mutants, fluorescence, 24 h; active compounds read low; DMSO median 0, no signal -100;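 active means significant combined selectivity score with lowered wild-type GFP, culture density cut under 30%, mutant RFP and density less affected; inactive means any of these conditions unmet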; further: one replicate is shown; some compounds called inactive have numbers as strong as hits
FGF22 binding: binders of recombinant human FGF22 by thermal shift; Q9HCT0; SYPRO orange fluorescence; percent of sucrose octasulfate shift, DMSO zero; calls only at 9.99 µM; 1.5% of 340,000 active;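 active means melting point raised past a set limit in the mean and every replicate; inconclusive means no clear call; three in four hits are not shown here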
Target sequence (Q9HCT0 whole entry, looked up): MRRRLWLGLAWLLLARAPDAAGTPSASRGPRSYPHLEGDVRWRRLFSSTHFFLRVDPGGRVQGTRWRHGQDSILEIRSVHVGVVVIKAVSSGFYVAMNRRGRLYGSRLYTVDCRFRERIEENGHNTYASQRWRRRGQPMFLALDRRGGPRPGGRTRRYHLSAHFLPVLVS
rRNA inh HTS OD600: also measured in rRNA inh HTS; calls as there; OD600 change, %; measured here: OD600 growth;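 optical density of the mix in the first replicate; 0 = DMSO median and -100 = no signal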
rRNA inh HTS RFP: also measured in rRNA inh HTS; calls as there; RFP signal change, %; measured here: RFP humanized mutant strains;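 first replicate; 0 = DMSO median and -100 = no signal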
Starred values were filed as active, the others as inactive; i = inactive; ? = inconclusive; nt = not tested or not shown; & = joins results of further samples. This is a subset; rates above refer to the full screens.

SMILES | AF4-AF9 inh | ALR inh | HNF4A DNA FP | Vif TR-FRET | E coli growth | rRNA inh HTS | rRNA inh HTS OD600 | rRNA inh HTS RFP | FGF22 binding
C[C@H]1CN([C@@H](C)CO)C(=O)c2cc(NC(=O)C3CC3)ccc2O[C@@H]1CN(C)S(C)(=O)=O | -15 | nt | nt | nt | nt | 1 | 4 | -0.1 | i
COC(=O)C1CCN(Cc2ccc(C)cc2)CC1 | nt | -13 | 5.4 | -5% | 0.68 | nt | nt | nt | nt
Cc1ccc2c(COC(=O)C3=COCCO3)cc(=O)oc2c1 | nt | nt | -1.1 | -8% | 0.72 | nt | nt | nt | nt
COc1ccc(-n2c(Cc3cccn3C)nnc2SCC(=O)Nc2ccccc2OC)cc1 | 4.7 | 43 | 3.2 | 18% | 0.7 | 8 | 2 | 3.7 | i
CCc1cc(C(=O)OC)c(NC(=O)CC2SC(=NC)N(C)C2=O)s1 (centres undefined) | -1.1 | 0 | -4.8 | nt | 0.73 | -8 | -4 | -1.5 | i
Cc1noc(C)c1NC(=O)N(C)C[C@H]1Oc2cc(C#CCC3CCCC3)ccc2S(=O)(=O)N([C@H](C)CO)C[C@@H]1C | 4.2 | nt | nt | nt | nt | -1 | -3 | -5.4 | i
O=C(NCCC1CCCCN1S(=O)(=O)c1cccs1)C(=O)Nc1ccc(F)cc1 (centres undefined) | -3.1 | -3 | -2.2 | 1% | 0.68 | 1 | 0 | -1.5 | i
C[C@@H]1CCCCO[C@@H](CN(C)Cc2ccc(Cl)c(Cl)c2)[C@H](C)CN([C@H](C)CO)C(=O)c2cc(NS(=O)(=O)c3ccccc3)ccc2O1 | 5.8 | nt | nt | nt | nt | 0 | -3 | 14 | i
Cc1ccc(-c2cnc3c(c2)C(=O)N([C@@H](C)CO)C[C@@H](C)[C@H](CN(C)C)O3)cc1 | -0.2 | nt | nt | nt | nt | 3 | 8 | -0.1 | i
CC(OC(=O)/C(C#N)=C/c1ccc(N(C)C)cc1)C(=O)N(C)c1ccccc1 (centres undefined) | 2.9 | 3 | 107* | nt | nt | -7 | -23 | 34 | i
C[C@@H]1CN([C@H](C)CO)C(=O)Cc2cc(NC(=O)Cc3cn(C)c4ccccc34)ccc2O[C@H]1CN(C)S(=O)(=O)c1cccs1 | -1.5 | nt | nt | nt | nt | -1 | 4 | -0.5 | i
O=C(CN(CCc1ccccc1)C(=O)CN1C(=O)COc2ccccc21)NCc1ccco1 | nt | 3 | 0.9 | -1%&2% | 0.68 | nt | nt | nt | nt
CCC(c1nnc(SCC(=O)Nc2ccc(NC(C)=O)cc2)n1Cc1ccccc1)N(C)C (centres undefined) | 1.4 | -11 | 2.4 | -4% | 0.74 | -1 | 12 | -0.7 | i
COc1ccc(NC(=O)CN2C(=O)S/C(=C/c3cccn3-c3ccc(C(=O)O)cc3)C2=O)cc1 | 3.4 | 21 | -16 | nt | nt | 5 | 7 | -0.7 | nt
COc1ccc(OCCN2C(=O)c3ccccc3C2=O)cc1 | -0.7 | 1 | 11 | nt | 0.61 | 9 | 0 | -0.3 | i
O=C(O)/C=C/C(=O)Nc1cccc2cccnc12 | 3.0 | -94 | -1.8 | 32% | 0.63 | 2 | 0 | 3.0 | i
O=C(O)c1cc([N+](=O)[O-])ccc1-c1ccc([N+](=O)[O-])cc1C(=O)O | -0.6 | nt | -9.2 | 16% | nt | 4 | 4 | -2.3 | i
CSc1nc(-c2ccccc2)nc(N2CCCC2)c1C(C)=O | nt | -1 | -1.6 | 2% | 0.65 | nt | nt | nt | nt
COc1ccc(N2C(=NC(=O)CC3CCCCC3)SC3CS(=O)(=O)CC32)cc1 (centres undefined) | 3.2 | -6 | -1.9 | nt | 0.68 | 0 | 0 | -1.8 | nt
CC1CCCCC1NC(=O)Cn1cnc2ccccc2c1=O (centres undefined) | nt | -1 | 1.1 | -2% | 0.76 | nt | nt | nt | nt
C[C@@H]1CN([C@H](C)CO)S(=O)(=O)c2ccc(-c3ccncc3)cc2O[C@@H]1CN(C)C(=O)CC1CC1 | -1.8 | nt | nt | nt | nt | -1 | 4 | -3.7 | i
CC1Oc2ccccc2N(CC(=O)NCC2CCCO2)C1=O (centres undefined) | nt | 0 | 1.9 | 21% | 0.65 | 5 | 2 | -1.2 | nt
O=C(O)CCN1Cc2ccccc2C1=O | nt | -2 | 1.2 | -2% | 0.7 | nt | nt | nt | nt
COc1ccc(OCc2nnc(SC3CCOC3=O)n2-c2ccccc2)cc1 (centres undefined) | -16 | -4 | -3.9 | 1% | 0.7 | -4 | -4 | 3.9 | i
CO[C@@H]1CN(C)C(=O)c2cc(NC(=O)C3CCC3)ccc2OC[C@H](C)N(C(=O)NC(C)C)C[C@@H]1C | -0.3 | nt | nt | nt | nt | 2 | 1 | -2.0 | i
Cc1cc(C=O)c(C)n1-c1ccc(N2CCCC2)c([N+](=O)[O-])c1 | nt | -24 | 1.7 | ? | 0.7 | nt | nt | nt | nt
Cc1c(C(=O)N(C)C2CCCCC2)sc2ncnc(N3CCN(c4ccccc4)CC3)c12 | 10.0 | 3 | -1.4 | nt | 0.72 | -4 | -21 | 5.5 | i
CCOC(=O)Cc1csc(NC(=S)NC(=O)c2ccc(C)cc2)n1 | 0.0 | -5 | 0.0 | nt | 0.69 | 11 | 6 | -1.7 | i
O=C(O)/C(=C\c1ccc(F)cc1)c1ccc(-c2ccccc2)cc1 | -6.4 | 53 | -2.4 | nt | 0.65 | -1 | -19 | -1.5 | i
COc1ccc(S(=O)(=O)Nc2ccc3c(c2)[C@@H]2C[C@H](CC(=O)N(C)C)O[C@H](CO)[C@@H]2O3)cc1 | -0.3 | nt | nt | nt | nt | -4 | -5 | -1.5 | i
CC1(C)C(=O)Nc2ccccc2N1C(=O)COC(=O)Cn1cnc2ccccc2c1=O | nt | 0 | 2.9 | 13% | 0.7 | nt | nt | nt | nt
COc1ccc(OC)c(/C=N/NC(=O)c2nnn(-c3nonc3N)c2-c2cccs2)c1 | -6.4 | -4 | 3.0 | nt | nt | 3 | 4 | -1.5 | i
CNc1ncc(Cc2ccccc2)s1 | -1.2 | -2 | -1.4 | nt | 0.67 | 1 | 9 | 0.6 | i
COC(=O)[C@@]1(C)[C@H]2C(=O)N(Cc3ccccc3)C(=O)[C@H]2[C@H]2CN=C(SCC(=O)c3ccccc3)N21 | 1.5 | nt | 5.9 | -11% | 0.72 | 7 | 6 | -3.4 | nt
COc1cc(OC)c(NS(=O)(=O)c2cccc(C(=O)OCC(=O)NCC3CCCO3)c2)cc1Cl (centres undefined) | -1.3 | 3 | 2.2 | 4% | 0.72 | -23* | -3.0* | 2.1* | i
COC(=O)C(Cc1ccc(O)cc1)NC(=O)c1ccc2c(c1)OCCO2 (centres undefined) | -29 | 27 | 9.9 | nt | 0.69 | 0 | 3 | 0.2 | i
COc1ccc(C(=O)NCCN2CCCC2)cc1OC | nt | -4 | -0.6 | -5% | 0.61 | nt | nt | nt | nt
O=C(NNc1ncnc2ccccc12)c1cccc(Cl)c1 | -1.1 | nt | 0.1 | 1% | 0.64 | 12 | 8 | -3.4 | i
CC(OC(=O)COc1cccc2c1OC(C)(C)C2)C(=O)Nc1ccc(S(N)(=O)=O)cc1 (centres undefined) | -3.0 | nt | 2.1 | nt | nt | -3 | -9 | 3.0 | i
Cc1ccc(C2=NN(C(=O)CCC(=O)O)C(c3cn(-c4ccccc4)nc3-c3ccc(C)cc3)C2)cc1 (centres undefined) | -1.0 | 8 | -0.3 | -5% | 0.67 | 1 | -14 | 1.1 | i

Two records picked at random from those above:
SMILES | AF4-AF9 inh | ALR inh | HNF4A DNA FP | Vif TR-FRET | E coli growth | rRNA inh HTS | rRNA inh HTS OD600 | rRNA inh HTS RFP | FGF22 binding
CCOC(=O)Cc1csc(NC(=S)NC(=O)c2ccc(C)cc2)n1 | 0.0 | -5 | 0.0 | nt | 0.69 | 11 | 6 | -1.7 | i
CC1Oc2ccccc2N(CC(=O)NCC2CCCO2)C1=O (centres undefined) | nt | 0 | 1.9 | 21% | 0.65 | 5 | 2 | -1.2 | nt

Further compounds follow.
SMILES | AF4-AF9 inh | ALR inh | HNF4A DNA FP | Vif TR-FRET | E coli growth | rRNA inh HTS | rRNA inh HTS OD600 | rRNA inh HTS RFP | FGF22 binding
CCOc1ccc(OCc2ccc(C(=O)NCc3ccncc3)o2)cc1 | nt | -8 | 3.2 | 10% | 0.69 | nt | nt | nt | nt
COCCNC(=O)C[C@H]1CC[C@H]2[C@H](COc3ccc(NC(=O)C4CCOCC4)cc3C(=O)N2C)O1 | -1.3 | nt | nt | nt | nt | -1 | 7 | -1.3 | i
CCOC(=O)C1CCN(C(=O)COC(=O)c2cccc(NS(=O)(=O)c3ccccc3)c2)CC1 | -0.8 | nt | 4.6 | -4% | 0.68 | 1 | -7 | 1.4 | i
Cc1cc(C)cc(NC(=O)C2CCCN(c3ncccn3)C2)c1 (centres undefined) | -1.1 | -3 | -1.8 | nt | 0.69 | 7 | 13 | -3.4 | i
Cc1nn(-c2ccccc2)c(C)c1/C=N/N1CCN(c2ccccn2)CC1 | 15 | 15 | -2.3 | 7% | nt | -11 | -8 | 1.0 | i
Cn1c(SCC(=O)Nc2ccc3nc(SCC(=O)N4CCCC4)sc3c2)nnc1-c1ccc(N)cc1 | nt | nt | -6.1 | 6% | 0.68 | nt | nt | nt | nt
Cc1noc(C)c1NC(=O)N(C)C[C@H]1Oc2cc(C#CCC3CCCC3)ccc2S(=O)(=O)N([C@H](C)CO)C[C@H]1C | 37* | nt | nt | nt | nt | -5 | -28 | 15 | i
CCN(CC)CCN(C(=O)CCOc1ccccc1)c1nc2c(F)cc(F)cc2s1 | 5.5 | -15 | 5.9 | -8% | 0.62 | 8 | 3 | -2.9 | i
CCOC(=O)c1c(NC(=O)CSc2nnc(-c3ccc(Cl)cc3)o2)sc2c1CCC2 | 3.7 | 0 | -2.6 | nt | 0.67 | -4 | -1 | 8.6 | i
COc1ccc(NC(=O)Nc2sc(NS(=O)(=O)c3ccccc3)nc2C)cc1 | -3.1 | 65 | 9.1 | 3% | 0.7 | 15 | 8 | -1.0 | i
O=C(Cc1ccc(Cl)cc1)NCCc1cnc[nH]1 | 0.0 | nt | 2.2 | nt | 0.65 | 1 | 6 | -1.9 | i
COc1ccc(CC(=O)OCN2C(=O)c3ccccc3C2=O)cc1 | nt | nt | 1.6 | 0% | 0.7 | nt | nt | nt | nt
Clc1cccc(OCCN2CCNCC2)c1 | 3.3 | -3 | 4.1 | 7% | 0.73 | 15 | 8 | -2.4 | i
CC(C)N1C(=O)c2ccc(C(=O)O)cc2C1=O | nt | -2 | 2.3 | -4% | 0.78 | nt | nt | nt | nt
O=C(NCCN1CCOCC1)c1ccc2ccccc2n1 | 1.3 | -25 | -0.9 | 5% | 0.67 | 17 | 13 | -0.5 | i
CC(C)CC#Cc1ccc2c(c1)O[C@H](CN(C)C(=O)c1ccccc1F)[C@@H](C)CN([C@H](C)CO)S2(=O)=O | 0.5 | nt | nt | nt | nt | -2 | 4 | 6.5 | i
O=C(O)Cn1nnnc1-c1ccc(F)cc1 | 2.9 | -4 | 0.3 | -1% | 0.74 | 18 | 15 | -13 | i
COc1ccc2c3c(n(C)c2c1)[C@@H](CO)N(C(=O)CC1CC1)CC31CN(C(=O)C2CCC2)C1 | 1.1 | nt | nt | nt | nt | -2 | 5 | -0.1 | i
COCC(=O)Nc1cc(OC)ccc1OC | nt | nt | -0.6 | 14% | 0.7 | nt | nt | nt | nt
CCO/C=C1/C(=O)N(C(C)=O)c2ccccc21 | nt | 0 | 0.5 | -4% | 0.73 | nt | nt | nt | nt
CCCCNC(=O)CCNC(=O)c1ccc(C(C)(C)C)cc1 | nt | -29 | 4.9 | -1% | 0.66 | nt | nt | nt | nt
